Screening data from PubChem BioAssay.
VDR inhibitor: vitamin D3 receptor (human) inhibition | P11473 | VDR-SRC2-3 peptide fluorescence polarization, 2 h | Potency, µM, for the others: max response, negative = inhibition, actives largely listed as inhibitors | 400,000 compounds, 0.93% hits | AID 504847; active = well fitted inhibition curve with a large enough effect; inconclusive = small, poorly fitted or top-dose-only effect, or another doubt; inactive = no such curve, though single readings can be large or run the other way; note: series mostly up to about 120 µM
Target sequence (P11473 whole entry, looked up): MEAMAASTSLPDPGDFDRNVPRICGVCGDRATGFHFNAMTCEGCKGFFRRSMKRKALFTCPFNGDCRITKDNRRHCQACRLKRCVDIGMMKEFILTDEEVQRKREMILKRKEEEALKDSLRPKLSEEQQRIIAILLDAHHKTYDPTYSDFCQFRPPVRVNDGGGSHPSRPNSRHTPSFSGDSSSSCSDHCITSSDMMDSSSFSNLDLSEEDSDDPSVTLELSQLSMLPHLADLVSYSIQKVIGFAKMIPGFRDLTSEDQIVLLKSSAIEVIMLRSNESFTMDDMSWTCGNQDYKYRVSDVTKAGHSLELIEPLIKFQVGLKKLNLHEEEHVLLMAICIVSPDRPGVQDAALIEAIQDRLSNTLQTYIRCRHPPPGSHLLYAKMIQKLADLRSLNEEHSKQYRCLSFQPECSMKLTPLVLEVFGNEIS
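Measured by FP: displacement of SRC2-3 coactivator peptide from VDR by library compounds, following a two-hour ambient incubation.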
The depositor's hits bear a star; & = joins results of further samples; [ ] = remark or other dose. % is set by controls: 0 for no effect and ±100 for the full control effect; potency is the fitted concentration of half-maximal effect. Not all compounds are listed, so the mix of outcomes need not match the whole.

For CC(C)CCNC(=O)c1ccc2c(c1)N(Cc1ccccc1F)C(=O)c1ccccc1S2(=O)=O the results were VDR inhibitor -6%.
`Cc1csc(=O)n1CC(=O)OCC(=O)c1c(N)n(C)c(=O)n(C)c1=O` gave VDR inhibitor 5%.
Screening CCOC(=O)c1c(-c2ccc(F)cc2)csc1/N=C/N(C)C returned VDR inhibitor -23%.
CCOC(=O)C1CCN(C(c2cccs2)c2sc3nc(C)nn3c2O)CC1 (stereo not drawn) was read as VDR inhibitor -23%.
`C=CCc1cc(OC)ccc1OCCCCn1cncn1` gave VDR inhibitor -9%.
For O=c1c2ccccc2cnn1Cc1n[nH]c(=S)n1-c1cc(Cl)cc(Cl)c1 the results were VDR inhibitor -8%.
`CCC1(c2ccc(F)cc2)NC(=O)N(CC(=O)Nc2ccc(N3CCCCC3)cc2)C1=O` (stereo not drawn) gave VDR inhibitor -15%.
For Cc1ccc(N2CC(C(=O)N3CCc4ccccc4C3)CC2=O)cc1 (stereo not drawn) the results were VDR inhibitor 0%.
Screening COc1cccc(-c2nc(CS(=O)(=O)CC(=O)Nc3c(C)cc(C)cc3C)c(C)o2)c1 returned VDR inhibitor -4%.
For O=C1NC[C@@H](Cc2ccc(O)cc2)N(CCc2cccc(F)c2)C1=O the results were VDR inhibitor 6%.
For O=C(/C=C/c1ccccc1)N1CCN(c2c(Cl)cccc2[N+](=O)[O-])CC1 the results were VDR inhibitor 11%.
CCc1c(O)nc(SCC(=O)Nc2ccccc2)n(C(C)CC)c1=O (stereo not drawn) was read as VDR inhibitor -13%.
O=C(O)c1cccc2c1Cc1cc([N+](=O)[O-])ccc1-2 was read as VDR inhibitor -23%.
O=C(CN1C(=O)C2C3C=CC(C3)C2C1=O)Nc1ccc(F)cc1 (stereo not drawn) was read as VDR inhibitor -16%.
Screening CCOc1ccc2oc(C(=O)NCC3CCCO3)c(C)c2c1 (stereo not drawn) returned VDR inhibitor 8%.
For NC(=S)N/N=C/c1ccc(OC(=O)c2cccnc2)cc1 the results were VDR inhibitor 8%.
Cc1ccc(NC(=O)c2cccc3cccnc23)cc1 was read as VDR inhibitor 3%.
Screening COC(=O)c1cc2sc(Cl)cc2n1Cc1nc(-c2ccccc2C)oc1C returned VDR inhibitor 2%.
CCN1C(=O)[C@@H]2[C@H](C1=O)[C@@H]1CC(C(=O)OC)=C[C@@H](C(=O)OC)C3C1=C(C(=O)C3(CC)CC)[C@@H]2C (stereo partly drawn) was read as VDR inhibitor -7%&-20%.
`CCC(=O)c1ccc(OCC(O)CN2CCN(c3ccccn3)CC2)cc1` (stereo not drawn) gave VDR inhibitor 7%.
Screening COc1cc2c(cc1NC(=S)Nc1cccc3ccccc13)oc1ccccc12 returned VDR inhibitor inconclusive.
`Cc1coc2cc3oc(=O)c(Cc4ccccc4)c(C)c3cc12` gave VDR inhibitor 2%.
`ClCC1CN(Cc2ccccc2Cl)CCO1` (stereo not drawn) gave VDR inhibitor -6%.
Screening Cc1ccc(NC(=O)CCn2cnc3onc(-c4ccc(F)cc4)c3c2=O)c(Br)c1 returned VDR inhibitor 12%.
`COc1ccc(-c2cc(-c3ccco3)[nH]c(=O)c2C#N)cc1OC` gave VDR inhibitor -13%.
For CC1(C)N=C(c2ccccc2)C(c2ccccc2)=N1 the results were VDR inhibitor -9%.
For Cc1cccc(OCc2nc(-c3ccc(-n4cccc4)cc3)no2)c1 the results were VDR inhibitor -17%.
For COc1ccc(NC(=S)Nc2ccccc2OC)c(OC)c1 the results were VDR inhibitor 4%.
For O=[N+]([O-])c1cc2c(cc1/C=N/Nc1nc(N3CCCC3)nc(N3CCCC3)n1)OCO2 the results were VDR inhibitor -9%.
CCN(CC)S(=O)(=O)c1ccc(N2CCOCC2)c(NC(=O)c2cnccn2)c1 was read as VDR inhibitor -5%.
CCN1C(=O)c2cccc3c(S(=O)(=O)Nc4ncccc4C)ccc1c23 was read as VDR inhibitor 8%.
For COc1ccc(CCn2c(NN=C(C)C)nc3c2c(=O)[nH]c(=O)n3C)cc1 the results were VDR inhibitor -10%.
`Cc1c(C#N)c2ncn(CCCN(C)C)c(=O)c2n1-c1ccccc1` gave VDR inhibitor 1%.
Screening CC12CCC(C(=O)NNC(=O)c3ccc(Br)cc3)(OC1=O)C2(C)C (stereo not drawn) returned VDR inhibitor -11%.
Screening CC1CCN(C(=O)CNC(=O)CNC(=O)Cc2ccccc2)CC1 returned VDR inhibitor 7%.
`CC[C@]12c3[nH]c4cc(-c5ccco5)ccc4c3CCN1C(=O)[C@@H](CC(=O)NCc1cccc(C(F)(F)F)c1)C[C@@H]2C(=O)N1CCN(C(=O)C2CC2)CC1` gave VDR inhibitor 2%.
For CN(CC(=O)Nc1ccc(F)c(F)c1F)C(=O)C1CC(=O)N(C2CCCC2)C1 (stereo not drawn) the results were VDR inhibitor 23%.
For Cc1nnc(SCc2cccs2)[nH]c1=O the results were VDR inhibitor 10%.
CCOc1ccccc1CNC(=O)C1CCN(S(=O)(=O)c2cccc3nonc23)CC1 was read as VDR inhibitor 6%.
Screening Cc1cc(C)c2c(CC(=O)NC3CCS(=O)(=O)C3)coc2c1 (stereo not drawn) returned VDR inhibitor -7%.
Screening Fc1ccc(NC(=S)N/N=C/c2cccc(Br)c2)c(F)c1 returned VDR inhibitor 2%.
Cc1ccc(CC2S/C(=N/N=C/c3ccco3)NC2=O)cc1 (stereo not drawn) was read as VDR inhibitor -4%.
For CC(C)N(C(=O)Cn1c(SCC(=O)Nc2nccs2)nc2ccccc21)C(C)C the results were VDR inhibitor 11%.
For Cc1cc(Br)c(NC(=O)COC(=O)C2CC2C)c(Br)c1 (stereo not drawn) the results were VDR inhibitor 15%.
`COC(=O)C(C)n1cnc2c(nnn2-c2cccc(Cl)c2)c1=O` (stereo not drawn) gave VDR inhibitor 3%.
CC(C)(CO)CNC(=O)CCc1nnc(CCCc2ccccc2)o1 was read as VDR inhibitor -4%.
CCOc1ccccc1N(C)C(=O)C1CCCN(c2ncnc3onc(-c4ccc(F)cc4)c23)C1 (stereo not drawn) was read as VDR inhibitor -9%.
For O=C(O)CC1Sc2ccccc2NC1=O (stereo not drawn) the results were VDR inhibitor 10%.
Screening CC(=O)Nc1ccc(S(=O)(=O)NC(CC(=O)O)c2ccc(C)cc2)cc1 (stereo not drawn) returned VDR inhibitor -11%.
`COc1ccc(C(=O)Nc2cccc(-c3nc4cccnc4s3)c2C)c(OC)c1` gave VDR inhibitor 8%.
`CCCCn1nc2cc(C(=O)NCC34CC5CC(CC(C5)C3)C4)ccc2c1OC` gave VDR inhibitor -8%.
Cc1ccc(S(=O)(=O)N(C)C)cc1NC(=O)COC(=O)c1c(-c2ccccc2)noc1C was read as VDR inhibitor 8%.
`CCC(=O)c1c[nH]c(C(=O)NCc2cccnc2)c1` gave VDR inhibitor 3%.
`Cc1cccc2cc(CN(Cc3ccc(F)cc3)C(=O)N3CCOCC3)c3nnnn3c12` gave VDR inhibitor -13%.
Screening Cc1cccc(Cn2c(=O)n(-c3ccc(Cl)c(Cl)c3)c(=O)c3c(C)c(C)sc32)c1 returned VDR inhibitor -20%.
Screening Cn1nc(C(F)(F)F)cc1C(=O)Nc1ccc(Cl)cc1 returned VDR inhibitor 5%.
`C=CCn1c(O)c(C(CC)=NCCN2CCOCC2)c(=O)[nH]c1=O` gave VDR inhibitor -6%.
`CCOC(=O)C1CCCN(Cc2ccc3c(c2)OCO3)C1` (stereo not drawn) gave VDR inhibitor 25%.
CCSc1nnc(NC(=O)CSc2nnc(Cc3cccn3C)n2-c2ccc(C)cc2)s1 was read as VDR inhibitor 14%.
Screening CC1=C(C(=O)Nc2ccc(C)cc2C)C(c2ccc(C(C)C)cc2)n2nc(C(F)(F)F)nc2N1 (stereo not drawn) returned VDR inhibitor 8%.
CN1CCN(c2nc(-c3ccccc3Cl)nc3ccccc23)CC1 was read as VDR inhibitor -6%.
`O=C(NNc1c2ccccc2nc2ccccc12)c1ccc(Cl)cc1` gave VDR inhibitor 5%.
CN(CC(=O)OCC(=O)NC1CCCC1)S(=O)(=O)c1ccc(Cl)cc1 was read as VDR inhibitor 38%[activator].
COc1cccc(CNC(=O)c2ccccc2NC(=O)C2=C(C)OCCS2)c1OC was read as VDR inhibitor 0%.
For CCOC(=O)Cc1ncccc1C(=O)Nc1ccc(OC)cc1 the results were VDR inhibitor -4%.
Screening Cc1ccc(C(=O)N2N=C(c3ccccc3O)CC2c2ccccc2)cc1 (stereo not drawn) returned VDR inhibitor 25%.
Screening O=C(NNc1nc2ccccc2s1)Nc1ccccc1 returned VDR inhibitor -21%.
For O=c1nc(C(F)(F)F)nc2ccccn12 the results were VDR inhibitor 0%.
Cc1ccc(C(=O)c2c3ccccc3[n+]([O-])n2CCC(=O)O)cc1 was read as VDR inhibitor -17%.
For Cc1ccccc1NC(=O)Cc1nc(COC(=O)c2ccc(O)cc2O)cs1 the results were VDR inhibitor -1%.
`C=CCn1c(C)cc(C(=O)CN2C(=O)NC3(CCCc4ccccc43)C2=O)c1C` (stereo not drawn) gave VDR inhibitor -8%.
COc1cc2c(cc1OC)[C@@H](NC(=O)c1ccc(C(F)(F)F)cc1)[C@H](OCc1ccccc1)C2 was read as VDR inhibitor -2%.
For Cc1ccc(NC(=O)C2(S(=O)(=O)c3ccc(Cl)cc3)CC2)c(Br)c1 the results were VDR inhibitor -12%.
CCN(CC)S(=O)(=O)c1ccc(-n2c(=O)c(C(C)C)c(C)n2C)cc1 was read as VDR inhibitor 12%.
For Cn1c(=O)c2c(nc(Oc3ccccc3Cl)n2Cc2ccc(C#N)cc2)n(C)c1=O the results were VDR inhibitor -9%.
Screening O=C(c1ccccn1)N1N=C2/C(=C/c3ccc(F)cc3)CCCC2C1c1ccc(F)cc1 (stereo not drawn) returned VDR inhibitor 1%.
`C/C(=N\NC(=O)c1cc(-c2ccc(C)s2)[nH]n1)c1ccncc1` gave VDR inhibitor -9%.
For CC(C)C1Oc2ccccc2N(CC(=O)N2CCOCC2)C1=O (stereo not drawn) the results were VDR inhibitor 7%.
Screening O=C(COc1ncnc2cc([N+](=O)[O-])ccc12)NCc1ccc2c(c1)OCO2 returned VDR inhibitor 7%.
For Cc1cccc(N2CCN(C(=O)c3cccs3)CC2)c1C the results were VDR inhibitor 4%.

Next part; the last six above are carried over.
For Cn1c(=O)c2c(nc(Oc3ccccc3Cl)n2Cc2ccc(C#N)cc2)n(C)c1=O the results were VDR inhibitor -9%.
Screening O=C(c1ccccn1)N1N=C2/C(=C/c3ccc(F)cc3)CCCC2C1c1ccc(F)cc1 (stereo not drawn) returned VDR inhibitor 1%.
`C/C(=N\NC(=O)c1cc(-c2ccc(C)s2)[nH]n1)c1ccncc1` gave VDR inhibitor -9%.
For CC(C)C1Oc2ccccc2N(CC(=O)N2CCOCC2)C1=O (stereo not drawn) the results were VDR inhibitor 7%.
Screening O=C(COc1ncnc2cc([N+](=O)[O-])ccc12)NCc1ccc2c(c1)OCO2 returned VDR inhibitor 7%.
For Cc1cccc(N2CCN(C(=O)c3cccs3)CC2)c1C the results were VDR inhibitor 4%.
`COc1ccc(NC(=O)Cn2nnc(-c3ccccc3F)n2)cc1` gave VDR inhibitor -2%.
`COC(=O)C1=C(C(=O)c2ccc(C)cc2)C(c2ccc(O)c(OC)c2)n2nnnc2N1` (stereo not drawn) gave VDR inhibitor -3%.
CCN(C(=O)COC(=O)c1cccc(-n2cnnn2)c1)C1CCCCC1 was read as VDR inhibitor -7%.
For O=C(c1ccccc1)c1ccc2ccccc2c1 the results were VDR inhibitor -6%.
`CN(c1ccccc1)S(=O)(=O)c1cc(C(=O)N2CCN(c3ccccn3)CC2)ccc1Cl` gave VDR inhibitor 55%[activator].
`CC(C)=NNc1cc([N+](=O)[O-])cc2c1C(=O)N(C)S2=O` (stereo not drawn) gave VDR inhibitor inconclusive.
`COc1cc(NC(=O)c2cccc(C)c2)c(OC)cc1NC(=O)CN1CCCCC1` gave VDR inhibitor -1%.
`COc1ccc(C2=NOC3(CC(=O)N(c4ccc(F)cc4)C3=O)C2)c(OC)c1` (stereo not drawn) gave VDR inhibitor 14%.
For COC(=O)c1cc2sc(C)cc2n1Cc1nc(-c2cccc(Br)c2)oc1C the results were VDR inhibitor 5%.
Screening COc1cc(CC(=O)OCC(=O)NC2CCCC2)cc(OC)c1OC returned VDR inhibitor -3%.
`CCN1C(=O)c2ccccc2Sc2ccc(NC(=O)N3CCN(c4cc(C)ccc4C)CC3)cc21` gave VDR inhibitor -7%.
CC(=O)Nc1ccc(C(=O)COC(=O)Cc2ccsc2)c(F)c1 was read as VDR inhibitor -21%.
For N#CC(C#N)=C1C=CC=CN1/C(=C\c1ccccc1)C(=O)c1cccs1 the results were VDR inhibitor inconclusive.
Cc1cc(C)cc(N(CCC#N)C(=O)COC(=O)CN2C(=O)NC(C)(C)C2=O)c1 was read as VDR inhibitor -12%.
NS(=O)(=O)c1ccc(N2N=C(c3ccccc3)CC2c2cccc(Br)c2)cc1 (stereo not drawn) was read as VDR inhibitor 13%.
For CC(NC(=O)c1ccccc1F)c1nnc(SCC(=O)NC2CCCC2)n1C (stereo not drawn) the results were VDR inhibitor -1%.
Screening O=C(Cn1nnc(-c2ccncc2)n1)N1CCc2ccccc21 returned VDR inhibitor 4%.

4 entries already listed, ordered by count of non-hydrogen atoms, high to low.
COc1cc2c(cc1OC)[C@@H](NC(=O)c1ccc(C(F)(F)F)cc1)[C@H](OCc1ccccc1)C2 was read as VDR inhibitor -2%.
`CCC(=O)c1ccc(OCC(O)CN2CCN(c3ccccn3)CC2)cc1` (stereo not drawn) gave VDR inhibitor 7%.
For N#CC(C#N)=C1C=CC=CN1/C(=C\c1ccccc1)C(=O)c1cccs1 the results were VDR inhibitor inconclusive.
For Cc1nnc(SCc2cccs2)[nH]c1=O the results were VDR inhibitor 10%.
